Rango-impB inh – inhibitors of Rango-importin beta complex formation; Rango CFP/YFP FRET sensor + importin beta, 45 min; 340,000 compounds, 0.031% hits; Q14974; Potency, µM (series often up to 92.2 µM), for inactives: at the highest dose inhibition of complex formation; active = rising FRET ratio curve, often small or poorly fitted; inconclusive = mostly compound fluorescence or quenching in the first reads; inactive = flat curves in all reads;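 also: potency is read from the fitted curve at half-maximal effect; 0% = DMSO wells and 100% = buffer wells lacking importin beta; nearly all actives have a fitted effect of over 15% in size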
Target sequence (Q14974 whole entry, looked up): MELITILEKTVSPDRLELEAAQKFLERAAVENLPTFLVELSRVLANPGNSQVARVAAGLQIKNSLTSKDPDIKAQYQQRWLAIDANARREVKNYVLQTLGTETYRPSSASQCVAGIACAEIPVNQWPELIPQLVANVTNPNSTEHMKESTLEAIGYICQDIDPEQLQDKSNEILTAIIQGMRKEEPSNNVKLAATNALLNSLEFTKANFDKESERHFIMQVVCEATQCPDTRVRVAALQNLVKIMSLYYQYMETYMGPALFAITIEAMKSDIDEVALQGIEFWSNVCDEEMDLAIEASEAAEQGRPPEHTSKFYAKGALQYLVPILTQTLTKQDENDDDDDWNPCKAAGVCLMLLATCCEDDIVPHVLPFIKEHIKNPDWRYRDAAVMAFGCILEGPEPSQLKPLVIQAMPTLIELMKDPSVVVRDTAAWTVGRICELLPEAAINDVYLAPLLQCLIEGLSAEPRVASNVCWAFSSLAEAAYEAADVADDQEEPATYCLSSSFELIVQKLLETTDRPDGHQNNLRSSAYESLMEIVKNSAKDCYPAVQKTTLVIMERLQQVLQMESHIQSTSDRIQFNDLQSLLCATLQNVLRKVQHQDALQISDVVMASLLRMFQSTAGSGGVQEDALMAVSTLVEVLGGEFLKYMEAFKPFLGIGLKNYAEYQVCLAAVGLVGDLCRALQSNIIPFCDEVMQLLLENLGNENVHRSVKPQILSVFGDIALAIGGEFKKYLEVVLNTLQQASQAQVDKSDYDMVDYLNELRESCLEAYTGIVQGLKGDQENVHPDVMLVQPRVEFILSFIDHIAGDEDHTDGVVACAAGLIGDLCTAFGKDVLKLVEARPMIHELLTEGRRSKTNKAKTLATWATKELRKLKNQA
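FRET biosensor (snurportin 1 IBB flanked by EYFP and cerulean), 50 nM, with compound 5 min, then 0.125 microM importin beta in PBS, 1 mM DTT, 0.02% Tween-20, 0.1% BSA. CFP/YFP ratio read after 45 min at room temperature; pre-read flags interference.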
Rango dissoc inh – prevents RanGTP from dissociating the Rango-importin beta complex; O95149+P62826; Biochemical FRET Rango-importin beta, RanGTP-induced dissociation; Potency, µM (titrated, usually from 46.1 µM), for inactives: at the top dose activity change, negative = inhibition; 340,000 compounds, 0.071% hits; AID 540253; active means falling FRET ratio curve, often poorly fitted, with flat reads before Ran was added; inconclusive means other falling curves, or compound fluorescence or quenching; inactive means flat or rising ratio curve;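 also: potency is read from the fitted curve at half-maximal effect; % of control where 0% means no effect; nearly all actives have a fitted effect of over 45% in size; -100% = wells without RanGTP and RCC1; the record marks most hits as doubtful in a second field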
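FRET read at 45 min, room temperature: inhibitors block the CFP/YFP signal rise when RanGTP (0.6 uM Ran, 2 mM GTP, 0.2 uM RCC1) frees Rango (0.1 uM) from importin beta (0.25 uM). Pre-read after 5 min compound exposure flags interference.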
GLA inh pH 4.5 – inhibitors of human alpha-galactosidase A at pH 4.5. P06280. purified enzyme, 4-MU-alpha-Gal fluorescence, pH 4.5. activity change, negative = inhibition, % at 105 µM. 230,000 tested, under 10 active. AID 1467; inconclusive = small, poorly fitted or top-dose-only inhibition, or a rising curve; inactive = flat fitted curve, though single readings scatter; no compound was filed as active;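 also: 0% = full activity with enzyme and -100% = basal without enzyme; dose as in the result columns while the protocol names 77 µM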
miR-21 reporter – miR-21 reporter, rising signal | HeLa miR-21 FLuc reporter, luciferase, 48 h | Potency, µM (series often up to 38.3 µM), without a hit: at the highest dose reporter change, positive = more light | 340,000 tested, under 10 active | AID 2288; active = well fitted rising curve with a large enough effect; inconclusive = small, poorly fitted or top-dose-only effect; inactive = no such curve, though single readings can be large or run the other way;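 also: % of control where 0% means no effect; miR-21 action dims this reporter so a rising signal means less miR-21 action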
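Using DMEM plus 10% FBS, HeLa miR-21-FLuc cells are incubated with test compounds (final up to about 40uM) for 48 hours; firefly luciferase signal is then imaged following reagent-mediated lysis.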
* hit, by the source's call; ? = inconclusive; / = not tested or not shown; & = joins results of further samples. This is a subset; rates above refer to the full screens.

SMILES	Rango-impB inh	Rango dissoc inh	GLA inh pH 4.5	miR-21 reporter
Cc1nc(COC(=O)c2cc(O)c3ccccc3c2O)cs1	?	-8%	2	-5%
Cc1ccc(-n2nc3c(c2NC(=O)C(C)C)CS(=O)(=O)C3)c(C)c1	4.1%	1%	/	-6%
C[C@H]1COC(=O)CC/C=C\C[C@H](CC(=O)N(CCO)Cc2ccccc2)C(=O)N1	3.4%	-1%	/	/
CN(C)CCCC1(O)c2ccccc2C=Cc2ccccc21	-4.5%	11%	-9	-5%
Cc1ccc(C(=O)NCCONC(=O)c2ccc(C)cc2)cc1	0.1%	9%	/	-8%
CC(C)(C)NC(=O)c1ccncc1	4.0%	4%	-16	1%
CCOc1cc2c3c(c1)C1(C(=O)N3C(C)(C)C=C2C)C(C#N)=C(N)Oc2cc(O)ccc21 (stereo not drawn)	1.5%	1%	1	12%
CCc1c(C2(O)CCCCC2)[nH]c2cnccc12	-0.1%	0%	/	/
COc1cc(OC)cc(-c2c(-c3ccc(F)cc3)c3cc(-c4ccc(OC)nc4)ccc3n2C)c1	-0.6%	-11%	/	/
O=C(NNS(=O)(=O)c1ccccc1)c1cnn(-c2ccccc2)c1-n1cccc1	0.4%	-9%	-4	-1%
Cn1c(SCC(=O)N2CCCCCC2)nc2c([nH]c3ccccc32)c1=O	5.1%	9%	-5	0%
CCC(=O)Nc1nnc(CSCc2ccc(F)cc2)s1	2.8%	2%	2	-8%
O=c1[nH][nH]cc1C=Nc1ccc(Cl)cc1	-4.2%	4%	-4	0%
COc1ccc(N2CCN(C(=O)c3ccc(S(=O)(=O)N4CCCC4)cc3)CC2)cc1	0.1%	1%	/	-3%
COc1cc(O)cc2cc3c(c(O)c12)C(=O)CC(C)(O)O3 (stereo not drawn)	?	?	6	11%
COc1cccc2sc3cc(C#CC4(O)CCCCC4)ccc3c(=O)c12	?	?	/	/
CC(C)Cc1nc(SCC(=O)Nc2nnc(CC(C)C)s2)n[nH]1	-4.6%	25%	0	-1%
Cc1ccsc1C(C(=O)NC(C)(C)C)N(Cc1ccco1)C(=O)c1csnn1 (stereo not drawn)	3.3%	14%	/	0%
Cc1ccc(N2CC(O)=C(c3ccccc3)C2=N)cc1	3.1%	-4%	4	-26%
O=C(Cc1ccc(Cl)cc1)SCc1ccccc1	-1.2%	10%	/	/
Nc1ccc(C(=O)c2cccs2)cn1	-2.4%	37%	0	-15%
O=C(Nc1ccc(-c2cn3ccsc3n2)cc1)C1CC1	-1.3%	14%	-5	-25%
Cc1nnc(SCC(=O)Nn2cnnc2)s1	-1.2%	-1%	11	-2%
CC(C)(C)c1ccccc1NC(=O)c1ccc(-n2cncn2)c([N+](=O)[O-])c1	-0.8%	21%	/	/
CCN(C(=O)COC(=O)c1ccc(C=O)cc1)c1c(N)n(Cc2ccccc2)c(=O)[nH]c1=O	5.3%	2%	/	/
CC(C)N(C(=S)NCc1ccccc1)C(C)C	3.5%	-8%	6	-2%
O=C(CNc1cccc(S(=O)(=O)N2CCCC2)c1)Nc1cccc(Br)c1	-1.0%	-7%	/	/
Cc1cc(-c2nnc(SCC(=O)Nc3ccccc3)n2C)no1	-1.9%	15%	0	5%
O=C1/C(=C/c2cccc(Br)c2)SC(=S)N1CCC(=O)N(CCO)c1ccccc1	3.3%	?	/	0%
O=C(Nc1ccc(Cl)cc1)Nc1ccc(N2CCCC2)c(S(=O)(=O)Nc2ccccc2Cl)c1	3.2%	0%	-8	10%
CC(=O)N(c1ccccc1)C(C(=O)c1ccccc1)c1ccccc1 (stereo not drawn)	?	-10%	/	/
Cc1ccc2cc(C)c3nnc(SCC(=O)Nc4nc5c(s4)CCCC5)n3c2c1C	1.5%	8%	-11	-2%
CS(=O)(=O)N(CC(=O)N1CCOCC1)c1ccccc1Br	-2.4%	8%	/	-2%
Cc1cc(=O)[nH]c2ccccc12	-0.4%	2%	-16	-11%
NC(=O)C1CCN(C(=O)c2ccccc2SCC(=O)NCC2CCCCC2)CC1	1.0%	12%	/	-2%
O=[N+]([O-])c1ccccc1/C=N/n1c(C2CCCCC2)n[nH]c1=S	8.7%	9%	0	-46%
Cc1cc(OCC(=O)Nc2cnn(CCCC(=O)O)c2)ccc1Cl	-0.8%	?	/	0%&-5%
CCOc1c(Cl)cc(CNCc2ccncc2)cc1OC	-2.1%	7%	-2	4%
NC(=O)c1cccc(CS(=O)(=O)c2ccc(Cl)cc2)c1	0.6%	3%	/	-5%
C/C(=N\N1CCN(Cc2ccc(Cl)cc2)CC1)c1ccc(F)cc1	2.4%	35%	0	11%
COc1ccc(Cl)cc1-n1c(C)cc(C(=O)O)c1C	-1.1%	-6%	-1	-8%
Cc1ccc(/C=N/Nc2nc(Cl)c(Cl)cc2Cl)s1	3.8%	-12%	-3	-52%
CCOC(=O)C1(Cc2ccccc2Cl)CCN(Cc2csc(C(C)=O)c2)CC1	0.2%	2%	-11	1%
COc1cc(C2=CN(Cc3ccccc3)CCC2=O)cc(OC)c1OC	-0.1%	-4%	/	/
CC(=O)N1CCC(=NNS(=O)(=O)c2ccc(C)c([N+](=O)[O-])c2)CC1	-3.5%	5%	-3	-5%
O=C(NCc1ccco1)C1CC(=O)N(c2ccc(Cl)cc2)C1 (stereo not drawn)	0.5%	1%	9	7%
CCN(CC)C(=O)c1[nH]cnc1C(=O)Nc1ccc(Cl)cc1	2.0%	1%	/	/
CCn1c(SCC(=O)N2CCc3ccccc32)nnc1-c1c[nH]c2ccccc12	3.5%	7%	4	-1%
CCCCNC(=O)c1ccc2nc(-c3ccco3)c(-c3ccco3)nc2c1	?	-3%	?	-1%
C=CCn1c(-c2ccoc2C)n[nH]c1=S	-0.9%	13%	7	2%
COc1ccc(C(=O)Nc2ccccc2C(=O)N/N=C/c2ccco2)cc1	-1.2%	-13%	4	-28%
O=[N+]([O-])c1ccc(N2CCN(c3ccc(Cl)nn3)CC2)cc1NC1CC1	-3.4%	0%	/	/
COc1cccc(CNC(=O)Cc2nc3nc(C)cc(C)n3n2)c1	0.0%	0%	0	-5%
NC(=O)C1CCN(C(=O)CN2C(=O)c3ccccc3S2(=O)=O)CC1	3.0%	-6%	9	0%
S=C(NCCCc1ccccc1)Nc1ccccc1	-3.2%	-6%	/	-6%
COCCCNC(=O)COc1ccc(-c2nccc(-c3ccccn3)n2)cc1	0.7%	-5%	1	11%
COc1ccc(CNC(C)C23CC4CC(CC(C4)C2)C3)c(OC)c1OC (stereo not drawn)	1.5%	-11%	/	8%
O=C(CSc1ccc([N+](=O)[O-])cn1)Nc1ccccc1N1CCOCC1	-0.3%	-5%	/	3%
c1cncc(CNC2CCCc3ccccc32)c1 (stereo not drawn)	2.0%	3%	0	0%
Cc1nc(SCC(=O)NC2CCCCC2)[nH]c(=O)c1C	-1.0%	-11%	5	-4%
The results go on:
SMILES	Rango-impB inh	Rango dissoc inh	GLA inh pH 4.5	miR-21 reporter
O=C(CCn1nnc2ccccc21)N/N=C\Cc1ccccc1	1.1%	-4%	-10	-10%
CCOC(=O)C1(CCOc2ccccc2)CCN(Cc2cccc(OC)c2)CC1	1.0%	-8%	/	/
CCC(C)[C@H](NC(=O)NCc1ccc(Cl)cc1)C(=O)O (stereo partly drawn)	0.7%	-8%	-1	1%
O=C(Nc1nc(-c2ccc(-c3ccccc3)cc2)cs1)C1CCCO1 (stereo not drawn)	1.4%	-2%	-6	-14%
CN(Cc1nccs1)C(=O)c1ccc2nc(Cc3ccccc3F)oc2c1	2.9%	-11%	/	1%
CCOC(=O)[C@@H]1[C@H]2COc3ccc(Br)cc3[C@@H]2N2C(=O)N(c3ccc(Br)cc3)C(=O)[C@]12C	-0.5%	7%	/	0%
COc1ccc(C2NC(=S)NC3=C2CCc2ccccc23)cc1OC (stereo not drawn)	-1.2%	2%	2	-6%
Cc1ccc(NC(=O)N(Cc2ccc3c(c2)OCO3)Cc2cc3cc4c(cc3[nH]c2=O)OCCO4)cc1	-2.2%	0%	-14	-12%
CCOc1ccc(CNC(=O)C2CCC(=O)N2C2CCCC2)cc1OC (stereo not drawn)	-4.4%	1%	-4	0%
Cc1cc(C)cc(NC(=O)C(=O)NCCCN2CCCC2=O)c1	1.7%	10%	/	/
NNC(=S)Nc1ccc(S(=O)(=O)N2CCOCC2)cc1	-1.7%	9%	-13	6%
Cc1nn(C)c(C)c1S(=O)(=O)N1CCCC(C(=O)N2CCN(c3ccccc3)CC2)C1 (stereo not drawn)	-3.3%	2%	-5	-1%
COc1ccc(C(C(=O)NC2CCCC2)N(C(=O)c2ccco2)c2cc3c(cc2C(C)=O)OCO3)cc1OC (stereo not drawn)	0.9%	-6%	/	-2%
CCN(CC)CCN1C(=O)c2cccc3cc(N)cc(c23)C1=O	2.4%	11%	0	?
O=S(=O)(c1cc(-c2nnc(-c3ccc(Br)cc3)o2)ccc1Br)N1CCCCCC1	?	-2%	1	-6%
COc1ccc(N2CCN(c3nc4cc(C)ccc4cc3C=O)CC2)cc1	2.7%	10%	/	19%
Cn1c(=O)nc2n(Cc3ccccc3)c3ccccc3cc-2c1=O	?	?	3	0%
Nc1ccc(-c2nc3cc([N+](=O)[O-])ccc3o2)cc1	4.0%	14%	4	-52%
O=C(NCC(=O)N(c1ccccc1F)C(C(=O)NC1CCCC1)c1cccnc1)c1ccco1 (stereo not drawn)	0.1%	-2%	/	-1%
CCOc1ccc2oc(-c3ccccc3)c(C(=O)O)c2c1	0.5%	0%	-2	-6%
CCc1cccc(C)c1NC(=O)COC(=O)CNS(=O)(=O)/C=C/c1ccccc1	?	10%	-14	1%
Cc1cc(Br)ccc1OCCN1CC(C)OC(C)C1 (stereo not drawn)	4.0%	22%	5	-8%
O=C(COc1ccc2cc(-c3ccccc3)c(=O)oc2c1)NCC1CCC(C(=O)O)CC1 (stereo not drawn)	0.6%	-21%	/	-2%
COc1ccc(-c2cc(C(=O)NCCCn3ccnc3)no2)cc1OC	2.8%	9%	3	-3%
O=C(CCc1ccccc1)NNC(=O)c1ccccc1F	3.4%	-3%	4	0%
C[C@H](NC(=O)c1nc[nH]c1C(=O)NCc1ccc(CNC(=O)OC(C)(C)C)cc1)C(=O)OC(C)(C)C	-3.0%	6%	-12	9%
CCc1nc2ccccc2c(=O)n1NC(=O)c1c(O)c2cccc3c2n(c1=O)CCC3	0.0%	-12%	-2	-2%
N#CC1=C(N)OC2=C(C(=O)CCC2)C1c1ccc2c(c1)OCO2 (stereo not drawn)	-2.5%	3%	/	3%
OCCN1C2=NCCCN2c2ccccc21	1.1%	-1%	/	-2%
COc1ccccc1S(=O)(=O)Cc1ccc(C(=O)N2CCOCC2)o1	-0.3%	31%	-5	1%
Cc1noc(NC(=O)c2cccc(Cl)c2Cl)c1C#N	0.0%	5%	4	-1%
CC1CC(C)CN(S(=O)(=O)c2cccc3cccnc23)C1 (stereo not drawn)	-3.1%	?	7	-1%
COc1ccc(/C=C2/C(=O)ON=C2c2ccccc2)cc1OC	-0.2%	-2%	1	-14%
COc1ccccc1NC(=S)NN=C(C)c1ccccn1	-3.9%	20%	/	/

Compound activity: PubChem, National Center for Advancing Translational Sciences (NCATS)
